# High-throughput results as filed in PubChem.
# Ecoli growth – E. coli growth inhibition, primary screen, OD600; Escherichia coli growth, 23 h; active compounds read low; OD600 absorbance (concentration not given with the values); actives 0.21% (n = 330,000); AID 1053175, 2014;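 active means OD600 absorbance below the run mean of sample wells minus 3.6 SD, in any replicate, cut at about 0.56 in these data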;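 further: stock transfer was 300 nL into about 60 µL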
# UCH37 inh – inhibitors of human UCH37 deubiquitinase, primary screen, biochemical, Ub-AMC cleavage, fluorescence. actives 0.33% (n = 330,000). inhibition, % (test concentration not listed). purified proteasome/UCH37. Ubiquitin carboxyl-terminal hydrolase isozyme L5 (Homo sapiens), Q9Y5K5;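 active means mean of two replicates above 20%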;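 further: 0% = compound-free wells with enzyme and 100% = wells lacking proteasome; stock transfer was 100 nL into about 20 µL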
#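 Signal – fluorescence, ex 355 nm, em 460 nm · System – Proteasome-bound UCH37 · Input – 0.15 nM proteasome as dispensed · Timing – 30 min preincubation with enzyme, 25 min cleavage at room temperature · Read-out basis – percent inhibition of cleavage signal versus uninhibited and no-proteasome wells · Medium – Tris-HCl pH 7.4 with ATP-MgCl2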
# ALR H2O2 inh – inhibitors of human ALR sulfhydryl oxidase, primary screen, biochemical, H2O2 detection, HRP-luminol luminescence, single point | FAD-linked sulfhydryl oxidase ALR (Homo sapiens), P55789 | purified ALR, DTT oxidation | inhibition, % (test concentration not listed) | AID 485317, 2010 | actives 3.8% (n = 290,000);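 active means mean and each replicate at 75% or more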;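 further: stock transfer was 7.5 nL into about 7.5 µL; 0% = neutral wells and 100% = wells with inactivated enzyme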
# Target sequence (P55789 whole entry, looked up): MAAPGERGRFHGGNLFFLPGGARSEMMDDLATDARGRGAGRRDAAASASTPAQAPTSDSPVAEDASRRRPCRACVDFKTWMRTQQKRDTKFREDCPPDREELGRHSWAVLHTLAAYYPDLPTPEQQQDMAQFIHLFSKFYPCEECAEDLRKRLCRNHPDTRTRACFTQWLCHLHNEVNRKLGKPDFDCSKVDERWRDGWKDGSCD
# HNF4A DNA FP – change in binding of human HNF4A to DNA, primary screen, biochemical, fluorescence polarization, FITC-DNA | 1 h | activity change, % at 10 µM | actives 0.3% (n = 360,000) | AID 1224865, 2016; in the data active means activity change above about 30%, passing the limit was not always enough;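 further: controls were the assay level and a saturating level of protein; the project sought stronger binding though the title names inhibitors; some compounds called inactive have numbers as strong as hits; positive values seem to mean higher polarization but the record does not say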
# B2AR ag – beta2AR agonists driving receptor internalization, primary screen, cell-based, FAP fluorogen, flow cytometry. response, % (concentration not given with the values). AID 504454, 2011. actives 0.43% (n = 340,000). Am2.2-beta2AR cells; reference of the scale not given here. Beta-2 adrenergic receptor (Homo sapiens), P07550;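 active means response above a set limit, near 3 SD of response in nonfluorescent compounds, cut at about 42% in these data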;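 further: stock transfer was 100 nL into about 11 µL; a reference agonist was the positive control; negative values mostly stem from fluorescent compounds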
# Target sequence (P07550 whole entry, looked up): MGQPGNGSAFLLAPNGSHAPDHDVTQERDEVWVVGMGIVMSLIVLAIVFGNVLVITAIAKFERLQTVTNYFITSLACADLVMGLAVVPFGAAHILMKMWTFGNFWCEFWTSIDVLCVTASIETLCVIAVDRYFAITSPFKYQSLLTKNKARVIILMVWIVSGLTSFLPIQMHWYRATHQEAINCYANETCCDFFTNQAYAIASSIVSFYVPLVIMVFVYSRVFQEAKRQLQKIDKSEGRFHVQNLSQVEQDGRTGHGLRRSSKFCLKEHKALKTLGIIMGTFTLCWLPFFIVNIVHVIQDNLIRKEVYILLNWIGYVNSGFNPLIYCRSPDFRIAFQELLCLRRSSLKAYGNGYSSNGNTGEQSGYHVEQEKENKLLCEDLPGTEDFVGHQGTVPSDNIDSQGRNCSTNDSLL
# rRNA inh HTS – reduced GFP signal of wild-type E. coli, primary screen, bacterial rRNA inhibitor project, GFP/RFP fluorescence, OD600, single point; E. coli WT GFP vs humanized-ribosome RFP mutants, 24 h; active compounds read low; DMSO median 0, no signal -100; GFP signal change (wild-type ribosome), % (test concentration not listed); actives 1.6% (n = 350,000);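 active means significant combined selectivity score with lowered wild-type GFP, culture density cut under 30%, mutant RFP and density less affected; inactive means any of these conditions unmet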; further: one replicate is shown; some compounds called inactive have numbers as strong as hits
# FGF22 binding – binders of human FGF22 protein, primary screen, FGF22 synaptogenesis inhibitor project, biophysical, thermal shift, single point | Fibroblast growth factor 22 (Homo sapiens), Q9HCT0 | recombinant FGF22 thermal shift, SYPRO orange fluorescence; percent of sucrose octasulfate shift, DMSO zero | calls only at 9.99 µM | actives 1.5% (n = 340,000) | AID 651658, 2012;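 active means melting point raised past a set limit in the mean and every replicate; three in four hits are not shown here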
# Target sequence (Q9HCT0 whole entry, looked up): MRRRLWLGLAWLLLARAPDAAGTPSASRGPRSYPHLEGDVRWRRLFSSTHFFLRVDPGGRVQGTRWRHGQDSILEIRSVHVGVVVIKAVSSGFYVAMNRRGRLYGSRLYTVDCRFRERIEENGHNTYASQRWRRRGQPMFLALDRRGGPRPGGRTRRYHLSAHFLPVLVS
# rRNA inh HTS OD600 – recorded beside rRNA inh HTS, whose call it bears; OD600 change, %; measured here: OD600 growth;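 optical density of the mix in the first replicate; 0 = DMSO median and -100 = no signal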
# rRNA inh HTS RFP – second read-out of rRNA inh HTS, no call of its own (marks repeat the call); RFP signal change, %; measured here: RFP humanized mutant strains;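 first replicate; 0 = DMSO median and -100 = no signal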
# * marks the source's active call; other numbers are inactive results; i = inactive; . = no result given. An excerpt. The share of hits here may be higher or lower than overall.
SMILES,Ecoli growth,UCH37 inh,ALR H2O2 inh,HNF4A DNA FP,B2AR ag,rRNA inh HTS,rRNA inh HTS OD600,rRNA inh HTS RFP,FGF22 binding
c1ccc(CSCc2cn3ccsc3n2)cc1,0.62,0.6,48,0.5,-23,.,.,.,.
CCOc1ccccc1/C=N/NC(=O)c1cccc(S(=O)(=O)N2CCOCC2)c1,.,.,-1,-2.7,-4,9,-3,2.6,i
CC1CCCCN1CC(O)COCCC12CC3CC(CC(C3)C1)C2 (stereo not drawn),0.64,1.7,-1,0.4,18,-29*,11*,-6.2*,i
COc1cccc(C(=O)Nc2cccc(C(=O)NCC(C)C)c2)c1,0.62,3.8,-2,-0.1,3,.,.,.,.
Cn1ncc(C#N)c1NC(=O)c1nn2cccnc2c1Cl,0.68,3.6,-12,-0.8,1,13,7,1.3,.
COc1ccc(CN2CCN(c3ccccn3)CC2)cc1OCc1ccccc1,0.69,0.7,-10,2.6,-1,.,.,.,.
COc1cccc(CNC(=S)Nc2ccc3c(c2)c(=O)n(C)n3Cc2ccccc2)c1,.,.,.,-0.8,.,-4,-11,-0.4,i
COc1ccccc1OCC(=O)Nc1ccc(S(=O)(=O)NC(C)=O)cc1,0.67,-1.2,24,0.1,4,.,.,.,.
CN(C)CCCN(C(=O)c1ccc(S(=O)(=O)N(C)C)cc1)c1nc2ccc(F)cc2s1,0.72,1.1,-6,3.9,-1,0,-3,0.7,i
O=C(OCC(=O)N1CCCC1=O)c1cc(S(=O)(=O)N2CCOCC2)ccc1F,0.71,0.1,-5,0.7,4,9,7,0.8,i
O=C1OCC=C1NNC(=O)c1cccnc1,0.63,4.4,-8,-2.4,-7,15,6,0.0,i
Cc1ccc(S(=O)(=O)n2ccc3cccnc32)cc1,0.69,2.4,4,-0.4,-1,.,.,.,.
CC(C)(C)NC(=O)C(c1c[nH]c2ccccc12)N(C(=O)Cn1nnc(-c2ccc(Cl)cc2)n1)c1ccccc1F (stereo not drawn),0.7,1.5,.,0.0,-7,.,.,.,.
O=C1CNC(=O)N1CC(=O)N1CCCc2ccccc21,0.7,3.2,-12,1.7,-4,18,13,2.1,.
CCOc1ccc(N(CC)C(=O)CCS(=O)(=O)c2cccc3nonc23)cc1,0.7,4.6,.,1.3,-6,4,5,-1.1,i
CCCCNC(=O)CSc1nc(O)c(Cc2ccc(OC)cc2)c(=O)[nH]1,0.74,5.7,.,0.3,-2,13,7,-0.2,i
CCCS(=O)(=O)NC(=O)C1(C)CCCN(C(=O)c2ccco2)C1 (stereo not drawn),.,.,.,2.0,.,16,19,1.0,i
Cc1ccc([C@H]2C[C@@H](n3cc(COC(=O)c4ccccc4)nn3)[C@H](O)CN2CC2CCCCC2)cc1,.,.,.,-1.6,.,7,4,-2.4,i
O=C(Nc1ccncc1)c1cc(S(=O)(=O)N2CCCC2)ccc1Cl,0.7,1.2,-18,4.8,15,12,-5,0.8,i
COc1ccc2oc(-c3ccccc3)c(C(N)=O)c2c1,0.7,-148,1,-1.2,7,.,.,.,.
CCC(=O)Nc1cccc(-c2cc3ccccc3oc2=O)c1,0.67,2.2,-4,3.3,-11,.,.,.,i
CCOC(=O)c1c(C)[nH]c(C(=O)COC(=O)/C=C/c2cccc(OC)c2OC)c1C,0.67,-40,1,0.8,-1,8,17,9.9,i
CC(=O)CCn1cc([N+](=O)[O-])nc1C,0.66,3.2,-10,2.5,0,12,10,1.2,i
COc1cc(C(=O)NCc2nnc(SCC(=O)Nc3cc(C)cc(C)c3)o2)cc(OC)c1OC,0.73,0.9,97*,0.8,1,.,.,.,.
CCOC(=O)[C@H]1[C@H]2COc3ccc(C)cc3[C@@H]2N2C(=O)CN(Cc3ccc(C)cc3)C(=O)[C@@]12C,.,3.0,1,1.8,-4,-13,-20,14,i

# (cont.)
SMILES,Ecoli growth,UCH37 inh,ALR H2O2 inh,HNF4A DNA FP,B2AR ag,rRNA inh HTS,rRNA inh HTS OD600,rRNA inh HTS RFP,FGF22 binding
CC(=O)N1CCC2(CC1)C/C(=N\NC(=S)Nc1ccccc1F)c1cc(O)ccc1O2,.,.,1,-0.3,21,-14,-9,-6.0,i
COc1ccc(CN2CCC(CO)(CCOc3ccccc3)CC2)c(OC)c1C,0.64,-1.4,-12,-0.5,-2,3,2,3.2,i
CCC(=O)OC1(C#CCOc2ccc(OC)cc2)CCN(C)CC1,0.7,5.0,1,2.4,5,.,.,.,.
C#CCOC(=O)Nc1cnccc1C(F)(F)F,0.7,5.9,-1,-3.5,-2,8,6,-2.1,i
COc1cccc(NC(=O)CN(C)C(=O)c2cccnc2Nc2cccc(C(F)(F)F)c2)c1,0.68,3.8,-4,-0.1,9,.,.,.,.
O=C(C1=C(O)C(=O)N(Cc2ccccc2)C1c1ccncc1)c1ccco1 (stereo not drawn),0.72,11,0,1.0,0,.,.,.,.
CC(C)(C)NC(=O)COC(=O)c1ccccc1OCC(=O)Nc1ccc(Br)cc1,0.7,6.2,-4,0.2,-15,11,11,2.5,i
COc1cccc(N2C(=NC(=O)c3ccccc3)SC3CS(=O)(=O)CC32)c1 (stereo not drawn),0.7,2.0,-3,0.7,-4,4,5,-2.3,i
COc1ccccc1CN1CC(C(=O)N2CCC(OC)CC2)CCC1=O (stereo not drawn),0.72,3.5,-3,1.7,2,-10,-9,0.9,i
O=C(NCC1CCCO1)c1cccnc1NCc1ccc(F)cc1 (stereo not drawn),0.68,-43,.,2.9,-13,2,-2,2.9,i
CC1CCC/C(=N\NC(=O)Nc2ccccc2)C1 (stereo not drawn),.,.,-1,-3.7,-2,-2,13,7.2,i
CCS(=O)(=O)N1CCCC(C(=O)NC2CCCCC2C)C1 (stereo not drawn),0.71,0.5,.,1.2,0,.,.,.,.
CCn1cc(C(=O)Nc2ncccc2O)c(=O)c2cc(F)c(N3CCN(C(=O)c4ccco4)CC3)cc21,0.11*,-21,1,-6.8,9,-56,-78,-20,i
O=C(Nn1c(C2CCC2)nc2ccccc2c1=O)c1cccs1,0.67,2.3,-1,1.1,-7,-2,-5,-4.3,i
O=C(O)Cc1c(C(=O)O)nnn1-c1ccc(Cl)cc1Cl,0.69,0.5,-25,0.9,3,15,19,5.7,i
COc1ccc(CN(C(=O)c2cc(=O)c3cc(C)cc(C)c3o2)C2CCS(=O)(=O)C2)cc1 (stereo not drawn),0.62,1.0,-4,3.0,-8,0,6,1.3,i
COc1ccc(CN(CC(=O)NCc2ccccc2)C(=O)CCC(=O)Nc2cc(C)ccn2)cc1,0.69,5.4,-2,0.2,-3,12,16,2.1,i
COc1ccccc1-c1ccc([C@@H]2C[C@H]3[C@H](CON3C)CN2C(=O)c2ccco2)cc1,.,.,.,3.5,.,-1,-1,-1.4,i
C/C(=N\NC(=O)CSCc1ccc([N+](=O)[O-])cc1)c1cccc(Br)c1,.,.,-3,5.1,-2,8,1,-6.0,i
CCN(c1cccc(C)c1)c1ncnc2nc[nH]c12,0.74,5.1,-15,-0.5,13,0,8,0.2,i
c1coc(CSCc2cn3cccnc3n2)c1,0.67,-127,-5,0.0,2,.,.,.,.
CCSc1nc(O)c(C2OC(=O)c3c2ccc(OC)c3OC)c(=O)n1CC (stereo not drawn),0.67,0.8,49,-3.5,-1,.,.,.,.
COCC1CCN(C(=O)c2ccc3nc(Cc4cccc(Cl)c4)oc3c2)CC1,.,.,.,-0.3,.,-20,-29,-1.0,i
COc1ccc(OC)c(NC(=O)CSc2nnc(CNC(=O)c3ccccc3F)o2)c1,0.59,0.4,-34,2.2,-1,0,3,-2.2,i
O=C(O)CCC(=O)Nc1ccc(SSc2ccc(NC(=O)CCC(=O)O)cc2)cc1,0.65,12,.,-1.1,-4,6,11,-2.1,.

# (continued)
SMILES,Ecoli growth,UCH37 inh,ALR H2O2 inh,HNF4A DNA FP,B2AR ag,rRNA inh HTS,rRNA inh HTS OD600,rRNA inh HTS RFP,FGF22 binding
COc1cccc(-c2ccc(NC(=O)C3CCCN(Cc4ccccn4)C3)cc2)c1 (stereo not drawn),.,.,.,2.5,.,-6,-13,4.1,i
Cc1ccc(C2=NC3(CCCCCC3)NC2=S)cc1,0.72,0.5,-3,-0.5,-2,8,4,-2.4,i
CCOC(=O)C1(CC2CC2)CCN(Cc2cnc(-c3ccc(OC)cc3)nc2)CC1,0.66,3.0,-17,4.2,-6,-18,-19,2.8,i
COc1ccc(/C(O)=C2/C(=O)C(=O)N(c3ncccn3)C2c2ccc(C(C)(C)C)cc2)cc1 (stereo not drawn),0.71,7.6,39,.,.,12,11,0.9,i
CCc1ccc(CNn2cnnc2SCC(=O)NC(C)(C)C)cc1,0.66,0.2,-1,0.8,-2,-13,-8,-2.7,.
Cc1ccc(N2CCN(C(=O)c3nn(C)c4c3CS(=O)(=O)c3ccccc3-4)CC2)c(C)c1,0.69,5.0,1,0.3,-1,.,.,.,.
CCC(=O)Nc1ccc(S(=O)(=O)Nc2cc(C)on2)cc1,0.66,2.6,13,3.0,-8,.,.,.,.
COCCCNC(=O)c1c[nH]c2ccc(S(=O)(=O)N3CCC4(CC3)OCCO4)cc2c1=O,0.74,4.0,.,3.2,4,12,7,-0.7,i
O=C(CN1CCN(C(=O)c2c(F)cccc2F)CC1)Nc1ccccc1F,0.7,1.6,-7,-0.4,1,.,.,.,.
CCOc1ccccc1NC(=O)N1CCCC1C(=O)Nc1nnc(CC)s1 (stereo not drawn),0.68,2.9,4,-0.4,5,.,.,.,.
O=C(CSc1nn(-c2ccc(F)cc2)c(=S)s1)NC(=O)NCc1ccco1,0.66,2.0,3,2.8,-4,.,.,.,.

# Molecules from the list above that have a furan ring, fused or not:
SMILES,Ecoli growth,UCH37 inh,ALR H2O2 inh,HNF4A DNA FP,B2AR ag,rRNA inh HTS,rRNA inh HTS OD600,rRNA inh HTS RFP,FGF22 binding
CCCS(=O)(=O)NC(=O)C1(C)CCCN(C(=O)c2ccco2)C1 (stereo not drawn),.,.,.,2.0,.,16,19,1.0,i
COc1ccc2oc(-c3ccccc3)c(C(N)=O)c2c1,0.7,-148,1,-1.2,7,.,.,.,.
O=C(C1=C(O)C(=O)N(Cc2ccccc2)C1c1ccncc1)c1ccco1 (stereo not drawn),0.72,11,0,1.0,0,.,.,.,.
CCn1cc(C(=O)Nc2ncccc2O)c(=O)c2cc(F)c(N3CCN(C(=O)c4ccco4)CC3)cc21,0.11*,-21,1,-6.8,9,-56,-78,-20,i
COc1ccccc1-c1ccc([C@@H]2C[C@H]3[C@H](CON3C)CN2C(=O)c2ccco2)cc1,.,.,.,3.5,.,-1,-1,-1.4,i
c1coc(CSCc2cn3cccnc3n2)c1,0.67,-127,-5,0.0,2,.,.,.,.
O=C(CSc1nn(-c2ccc(F)cc2)c(=S)s1)NC(=O)NCc1ccco1,0.66,2.0,3,2.8,-4,.,.,.,.
